Source: PubChem
Ecoli rRNA inh – inhibitors of bacterial rRNA selective over humanized ribosomes | 1.6% of 350,000 active | E. coli WT GFP vs humanized-ribosome RFP mutants, fluorescence, 24 h; active compounds read low; DMSO median 0, no signal -100 | GFP signal change (wild-type ribosome), % (no concentration beside the values) | AID 720706;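 active means significant combined selectivity score with lowered wild-type GFP, culture density cut under 30%, mutant RFP and density less affected; inactive means any of these conditions unmet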; further: one replicate is shown; some compounds called inactive have numbers as strong as hits
ALR H2O2 inh – inhibitors of human sulfhydryl oxidase ALR; purified ALR, DTT oxidation, H2O2 HRP-luminol luminescence; 3.8% of 290,000 active; AID 485317; inhibition, % (concentration not given with the values); P55789;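 active means mean and each replicate at 75% or more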;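 further: stock transfer was 7.5 nL into about 7.5 µL; 0% = neutral wells and 100% = wells with inactivated enzyme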
Target sequence (P55789 whole entry, looked up): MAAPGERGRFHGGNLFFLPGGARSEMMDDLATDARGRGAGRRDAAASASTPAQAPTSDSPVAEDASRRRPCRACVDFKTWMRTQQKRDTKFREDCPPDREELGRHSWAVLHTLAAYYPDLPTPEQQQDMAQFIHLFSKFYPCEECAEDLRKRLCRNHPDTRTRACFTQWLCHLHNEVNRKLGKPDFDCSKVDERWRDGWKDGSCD
Bfl-1 A1 inh – inhibitors of the anti-apoptotic protein A1, read as caspase activation; MEF A1-2A-BIM cells, Caspase-Glo 3/7 luminescence, 3 h; percent of clofoctol response, vehicle zero; caspase activation, % (no concentration beside the values); 0.066% of 330,000 active;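 active means over half of replicate activation scores above 10%, or exactly half above 10 with the replicate mean above 10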;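 further: wells of about 30 µL received 50 nL stock; many hits fall short of the cut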
Beta2AR agonist – human beta-2 adrenergic receptor agonism by FAP; response, % (no concentration beside the values); 0.43% of 340,000 active; Am2.2-beta2AR cells, FAP receptor internalization, flow cytometry; reference of the scale not given here; P07550;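 active means response above a set limit, near 3 SD of response in nonfluorescent compounds, cut at about 42% in these data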;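 further: stock transfer was 100 nL into about 11 µL; a reference agonist was the positive control; negative values mostly stem from fluorescent compounds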
Target sequence (P07550 whole entry, looked up): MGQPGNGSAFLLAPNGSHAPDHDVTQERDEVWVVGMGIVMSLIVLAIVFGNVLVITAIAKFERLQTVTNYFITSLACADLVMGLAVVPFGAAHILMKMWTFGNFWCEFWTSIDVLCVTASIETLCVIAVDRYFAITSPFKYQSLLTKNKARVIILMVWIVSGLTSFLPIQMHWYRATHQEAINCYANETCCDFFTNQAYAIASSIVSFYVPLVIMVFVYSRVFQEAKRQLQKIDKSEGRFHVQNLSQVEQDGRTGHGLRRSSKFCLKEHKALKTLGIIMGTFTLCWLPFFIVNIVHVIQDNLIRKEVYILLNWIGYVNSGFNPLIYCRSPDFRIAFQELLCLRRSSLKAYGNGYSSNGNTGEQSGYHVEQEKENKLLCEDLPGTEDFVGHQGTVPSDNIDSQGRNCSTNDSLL
LANA-H2A inh – blocks KSHV LANA binding to histone H2A/H2B. AID 2629. 0.6% of 320,000 active. inhibition, % (no concentration beside the values). cell-free LANA-H2A/H2B peptide, fluorescence polarization. Q9QR71; in the data active means inhibition mostly above about 10%, no sharp cut-off; inactive means mostly below about 6.7%;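 further: stock transfer was 7.5 nL into about 10 µL; 0% = median of vehicle wells and 100% = median of positive control wells; one replicate is shown; the record names a cut of 25% in any replicate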
T cruzi inh – T. cruzi replication inhibition | T. cruzi beta-gal in NIH3T3, luminescence, 90 h | inhibition, % (no concentration beside the values) | 1.4% of 300,000 active | AID 1885;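 active means mean inhibition across valid replicates above about 55%, limit read from the data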;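 further: signal also drops with host cell toxicity which is not excluded here; 0% = plate median of DMSO wells and 100% = zero luminescence signal; higher percent means less beta-gal luminescence so fewer parasites; stock transfer was 50 nL into about 50 µL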
Beta apoptosis – blocks beta cell apoptosis; INS-1E cytokine-induced death, ATP luminescence, 48 h; percent of positive-control rescue, neutral wells zero; protection from apoptosis, % (test concentration not listed); 0.8% of 300,000 active; AID 435005;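 active means all replicates at 75% or more, or half of them and the mean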;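 further: 0% = cytokine-treated negative control wells and 100% = positive control rescue; higher means more ATP so stronger rescue from cytokine killing; wells of about 40 µL received 100 nL stock; the first replicate is given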
Calb FLC – C. albicans growth modulation with fluconazole | C. albicans CaCi-2 (fluconazole-resistant clinical isolate) + fluconazole, Alamar Blue growth, 48 h | growth inhibition, % (no concentration beside the values) | 0.57% of 300,000 active | AID 1979;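 active means most replicates above 75%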;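 further: all wells also contain fluconazole at 8 µg/ml as a sub-toxic cotreatment; 0% = median of DMSO wells and 100% = median of geldanamycin control wells; wells of about 8 µL received 7.5 nL stock; the first replicate is given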
Ecoli rRNA inh OD600 – recorded beside Ecoli rRNA inh, whose call it bears; OD600 change, %; measured here: OD600 growth;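 optical density of the mix in the first replicate; 0 = DMSO median and -100 = no signal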
Ecoli rRNA inh RFP – further read-out of Ecoli rRNA inh, marked with its call; RFP signal change, %; measured here: RFP humanized mutant strains;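 first replicate; 0 = DMSO median and -100 = no signal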
The depositor's hits bear a star; · = no result given. Some of the compounds tested; rates above refer to the full screens.

(1) O=C(Nc1cccc(S(=O)(=O)N2CCCC2)c1)c1ccc2c(c1)OCO2
(2) CCN(C(=O)c1ccco1)c1nc(CC(=O)Nc2ccc(Cl)cc2)cs1
(3) Cc1cccc(C)c1NC(=O)COc1ccccc1C(=O)Nc1ccc(Br)cn1
(4) COc1ccc2c(Cl)c(C(=O)NCCCn3ccnc3)sc2c1
(5) Cc1cccc(-c2nn(-c3ccccc3)cc2C(=O)Nc2cccc(S(=O)(=O)NC3=NCCC3)c2)c1
(6) CCn1c2ccccc2c2cc(N)ccc21
(7) Cc1ccc(COc2ccc(/C=N/NC(=O)c3nnn(-c4nonc4N)c3COc3ccc(F)cc3)cc2)cc1
(8) CCOC(=O)C(NC(=O)CC)(Nc1nc2c(s1)CCCC2)C(F)(F)F (stereo unspecified)
(9) CCn1c(Cc2ccccc2)nnc1SCC(=O)Nc1ccc(S(N)(=O)=O)cc1
(10) COc1ccc([C@@H]2[C@@H]3C(=O)N(C(C)(C)C)C(=O)[C@@H]3[C@]3(Cc4ccccc4)C(=O)N(c4cccc(Br)c4)C(=O)N23)cc1
Assay by compound	1	2	3	4	5	6	7	8	9	10
Ecoli rRNA inh	0	-12	5	·	-3	·	7	·	·	12
Ecoli rRNA inh OD600	6	-12	10	·	-5	·	8	·	·	10
Ecoli rRNA inh RFP	-7.5	-5.0	-3.2	·	2.7	·	-12	·	·	-3.5
ALR H2O2 inh	-9	-4	7	-25	·	65	-10	·	-3	-5
Bfl-1 A1 inh	-0.9	0.9	2.3	-1.1	-0.8	0.2	-1.0	0.5	0.2	-0.3
Beta2AR agonist	3	-11	1	-1	12	9	-13	4	22	1
LANA-H2A inh	-6.0	-4.9	3.1	-3.6	0.4	-1.3	-1.0	-2.1	-1.2	-4.3
T cruzi inh	13	13	19	30	4	42	7	-8	-4	26
Beta apoptosis	9	8	17	14	7	18	1	·	-5	5
Calb FLC	-9	21	-11	16	-13	-3	-2	-25	-5	16

The list goes on; it opens with the three that closed the last part.
(8) CCOC(=O)C(NC(=O)CC)(Nc1nc2c(s1)CCCC2)C(F)(F)F (stereo unspecified)
(9) CCn1c(Cc2ccccc2)nnc1SCC(=O)Nc1ccc(S(N)(=O)=O)cc1
(10) COc1ccc([C@@H]2[C@@H]3C(=O)N(C(C)(C)C)C(=O)[C@@H]3[C@]3(Cc4ccccc4)C(=O)N(c4cccc(Br)c4)C(=O)N23)cc1
(11) CN(C)S(=O)(=O)c1cc(NC(=O)CN2CCN(c3ccccc3)CC2)ccc1Cl
(12) Cc1ccc(C(=O)C(C)OC(=O)CN2C(=O)NC3(CCCC3)C2=O)cc1C (stereo unspecified)
(13) COc1cccc(C2NC(=O)c3ccccc3O2)c1OC (stereo unspecified)
(14) Cc1nnc(SC(C)C#N)n1-c1ccccc1 (stereo unspecified)
(15) CCn1c(SCC(=O)Nc2nc(-c3ccccc3)cs2)nnc1-c1ccccc1O
(16) COCCn1nnnc1C(C(C)C)N(Cc1cccnc1)Cc1ccccc1Cl (stereo unspecified)
(17) COc1cc(OC)cc(-c2nc3ccccc3c(=O)o2)c1
(18) CCN1CCN(S(=O)(=O)c2ccc(Cl)c(C(=O)Nc3nnc(C)s3)c2)CC1
(19) S=C(c1ccc(-c2ccc(Cl)c(Cl)c2)o1)N1CCOCC1
(20) COc1cc(/C=C/c2noc(-c3ccccc3O)n2)ccc1OC(C)=O
Assay by compound	8	9	10	11	12	13	14	15	16	17	18	19	20
Ecoli rRNA inh	·	·	12	·	-1	·	14	·	·	·	8	·	13
Ecoli rRNA inh OD600	·	·	10	·	0	·	5	·	·	·	10	·	14
Ecoli rRNA inh RFP	·	·	-3.5	·	1.2	·	-1.1	·	·	·	0.5	·	7.8
ALR H2O2 inh	·	-3	-5	21	·	2	-13	1	4	0	-2	4	-22
Bfl-1 A1 inh	0.5	0.2	-0.3	-0.2	0.8	1.2	0.2	-0.6	0.5	-3.1	-0.2	-1.6	-2.9
Beta2AR agonist	4	22	1	-16	2	-5	-9	7	-7	8	-5	10	3
LANA-H2A inh	-2.1	-1.2	-4.3	-10.0	1.8	-0.4	0.0	-6.4	2.2	1.2	6.0	-8.9	-4.6
T cruzi inh	-8	-4	26	-10	-4	-2	-7	25	29	-1	-1	6	-23
Beta apoptosis	·	-5	5	0	·	-2	1	-5	-3	-4	-1	-2	-6
Calb FLC	-25	-5	16	-9	-2	-11	-2	25	0	-1	0	31	8

(21) COC(=O)c1cn(NC(=O)C2CCC(C)CC2)c(=O)c2ccccc12 (stereo unspecified)
(22) CC(C)C(=O)Nc1ccc(C(=O)NNC(=S)NC(=O)c2cccs2)cc1
(23) COc1ccc(C2N3CC4(C)CN2CC(C)(C3)C4O)cc1OC (stereo unspecified)
(24) CSCCC(NC(=O)COc1ccccc1)C(=O)N1CC(C)CC(C)C1 (stereo unspecified)
(25) Cc1ccc(CN2CC(C(=O)Nc3nnc(SCc4c(Cl)cccc4Cl)s3)CC2=O)cc1 (stereo unspecified)
(26) CC(C)COP(=O)(c1ccc(N(C)C)cc1)C(O)c1ccc(N(C)C)cc1 (stereo unspecified)
(27) CCCNC(=O)C(Cc1ccccc1C)NC(=O)c1ccc(C#N)cc1 (stereo unspecified)
(28) CCOc1ccc(CCNC(=O)c2cc(-c3ccccc3)c(N3CCOCC3)s2)cc1
(29) Cc1ccc(-n2c(C)cc(-c3csc(N)n3)c2C)cc1
(30) Brc1ccc2ncnc(NCc3ccccc3)c2c1
Assay by compound	21	22	23	24	25	26	27	28	29	30
Ecoli rRNA inh	·	-28	·	-7	·	4	4	-2	·	·
Ecoli rRNA inh OD600	·	-42	·	-15	·	-1	9	2	·	·
Ecoli rRNA inh RFP	·	-3.1	·	-3.0	·	4.7	-7.1	-0.9	·	·
ALR H2O2 inh	-2	61	1	1	·	98*	2	1	-2	·
Bfl-1 A1 inh	2.0	0.2	-0.3	0.4	0.4	-1.3	0.3	0.4	-1.3	0.3
Beta2AR agonist	-7	-4	0	-3	-11	5	1	-10	9	-5
LANA-H2A inh	1.2	-3.0	2.9	-3.6	0.4	5.2	0.6	0.5	-4.4	3.8
T cruzi inh	35	-11	-12	·	6	4	·	58*	2	-1
Beta apoptosis	2	3	-2	0	-9	-3	1	10	14	56
Calb FLC	-20	-1	-8	·	27	0	·	5	7	-2

(31) Cc1ccc(S(=O)(=O)N(CC(=O)Nc2cccnc2)c2ccc(Br)cc2)cc1
(32) CC(=O)Cc1nsc(NC(=O)c2ccc(-c3cc(Cl)ccc3Cl)o2)n1
(33) Cc1cc(C)c(NC(=O)CN2C(=O)NC3(CCCCC3)C2=O)c(C)c1
(34) O=C(COc1ccc(Cl)cc1Cl)Nc1nc2n(n1)C(c1ccccc1)CC(=O)N2 (stereo unspecified)
(35) O=C(NNC(=O)c1cccs1)c1ccc(Br)o1
(36) O=C(c1ccc2nc(Cc3cccc(Cl)c3)oc2c1)N1CCOCC1
(37) O=S(=O)(c1ccccc1)N1c2cc(Cl)ccc2Oc2nc3ccccc3nc21
(38) CC(=O)c1ccc(OCCOc2ccc(Cl)c3cccnc23)cc1
(39) CCOC(=O)c1ccc(COC(=O)CNC(=O)CNC(=O)Cc2ccccc2)cc1
(40) Cc1ccc(-n2ncc3c(=O)n(-c4ccc(C)c(C)c4)c(-c4ccco4)nc32)cc1
Assay by compound	31	32	33	34	35	36	37	38	39	40
Ecoli rRNA inh	-44	-24	4	·	·	5	·	1	-1	·
Ecoli rRNA inh OD600	-75	-10	5	·	·	9	·	-4	-11	·
Ecoli rRNA inh RFP	-8.8	15	-7.9	·	·	2.3	·	1.3	-4.3	·
ALR H2O2 inh	-20	21	-1	·	96*	-16	-5	-10	-6	2
Bfl-1 A1 inh	-0.5	0.3	-0.2	1.6	1.4	-0.3	1.2	0.7	-0.1	-0.9
Beta2AR agonist	-1	-12	7	-22	-59	-8	1	1	8	1
LANA-H2A inh	9.4	2.9	0.7	1.7	0.9	-1.9	1.5	-0.2	4.7	2.9
T cruzi inh	21	0	-8	-17	·	0	·	0	-15	39
Beta apoptosis	·	-2	-5	1	-11	·	-6	·	-15	-3
Calb FLC	5	15	-2	-8	·	6	-6	-14	-7	1

(41) CN(C)S(=O)(=O)c1cccc(NC(=O)CN2C(=O)NC3(CCc4ccccc4C3)C2=O)c1 (stereo unspecified)
(42) Cc1ccc(C)c(OCc2cc(C(=O)N(C)Cc3ccccn3)no2)c1
(43) Oc1[nH]c2ccccc2c1N=Nc1ncnc2c1oc1ccccc12
(44) CCc1nc2sc(C(C)=O)c(N)c2c2c1CCCC2
(45) Cc1cc(C)cc(NC(=O)c2cc(C)n(Cc3cccs3)c2C)c1
(46) Cc1cccc(C(=O)NCC(=O)OCC(=O)N(C)CC(=O)Nc2ccc(F)cc2)c1
(47) CC(=O)Oc1c(C(C)C)cc(N(C(C)=O)c2ccccc2)cc1C(C)C
(48) Cc1cccc(NC(=O)C2CCN(S(=O)(=O)c3cccc4nsnc34)CC2)n1
(49) O=C(CN1CCN(CC(=O)Nc2ccccc2Cl)CC1)Nc1ccc2c(c1)OCCO2
(50) CCN(C(=O)COC(=O)CNS(=O)(=O)c1ccc(SC)c([N+](=O)[O-])c1)C1CCCCC1
Assay by compound	41	42	43	44	45	46	47	48	49	50
Ecoli rRNA inh	-2	-1	22	-20	-6	11	-22*	-23	·	8
Ecoli rRNA inh OD600	-1	-8	34	-28	-8	5	-16*	-20	·	10
Ecoli rRNA inh RFP	2.2	1.8	4.6	-4.9	3.3	0.9	-2.8*	-4.8	·	0.6
ALR H2O2 inh	-5	4	-2	-20	·	1	-31	-3	·	-79
Bfl-1 A1 inh	0.2	-0.9	-2.5	0.5	-0.4	0.1	0.0	0.3	-0.5	0.9
Beta2AR agonist	-1	1	·	-3	-4	1	20	8	5	-6
LANA-H2A inh	-3.5	1.7	-6.2	7.2	-4.5	3.7	-5.5	-0.2	1.8	3.7
T cruzi inh	-7	9	-14	24	2	0	-5	16	3	-12
Beta apoptosis	-9	1	2	-2	-10	1	-10	-6	1	-3
Calb FLC	-16	-2	9	-1	-5	3	1	2	15	-3
